Screening data deposited in PubChem BioAssay by several laboratories.
A1 inh = inhibitors of the anti-apoptotic protein A1, read as caspase activation; 0.066% of 330,000 active; caspase activation, % (concentration not given with the values); MEF A1-2A-BIM cells, Caspase-Glo 3/7 luminescence, 3 h; percent of clofoctol response, vehicle zero; AID 2462;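 active means over half of replicate activation scores above 10%, or exactly half above 10 with the replicate mean above 10; inconclusive means replicate mean below 10 yet half the replicates above 10; inactive means over half of replicates below 10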;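 further: wells of about 30 µL received 50 nL stock; many hits fall short of the cut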
Calb FLC = affects C. albicans growth with fluconazole; growth inhibition, % (test concentration not listed); 0.57% of 300,000 active; C. albicans CaCi-2 (fluconazole-resistant clinical isolate) + fluconazole, Alamar Blue growth, 48 h;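 active means most replicates above 75%; inconclusive means exactly half above 75%; inactive means most below 75%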;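 further: all wells also contain fluconazole at 8 µg/ml as a sub-toxic cotreatment; 0% = median of DMSO wells and 100% = median of geldanamycin control wells; wells of about 8 µL received 7.5 nL stock; the first replicate is given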
Vif A3G = inhibitors of Vif binding to APOBEC3G peptide, primary screen, biochemical, TR-FRET, GST-Vif 1-94, biotin-A3G peptide, dose response retest (AID 1117319). 0.57% of 260,000 active. TR-FRET GST-Vif / biotin-A3G peptide binding; higher % means a stronger effect; test concentration not given here; strong numbers were not always called active. one-dose inhibition, %; IC50 in µM for titrated hits;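 active means above the screen mean plus three standard deviations and confirmed in dose response; inconclusive means results disagree or hit not tested in dose response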;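 further: Vif residues 1-94 fused to GST binding biotinylated APOBEC3G peptide 110-148; 0% = full assay without inhibitor and 100% = GST in place of GST-Vif; retest series ran down from 100 µM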
MLL AF4-AF9 inh = blocks AF4 peptide binding to human AF9. P42568. AlphaScreen, biotin-AF4 peptide binding to FLAG-AF9. inhibition, % at 10 µM. 0.47% of 350,000 active. AID 651704;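 active means every replicate reaching a set inhibition limit, whatever the replicate mean, cut at about 25% in these data; inconclusive means mean inhibition reaches that limit but some replicates miss it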;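 further: 0% = plate neutral control median and 100% = total signal loss; the record names both 10 and 1 µM as test concentration; the first replicate is given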
Target sequence (P42568 whole entry, looked up): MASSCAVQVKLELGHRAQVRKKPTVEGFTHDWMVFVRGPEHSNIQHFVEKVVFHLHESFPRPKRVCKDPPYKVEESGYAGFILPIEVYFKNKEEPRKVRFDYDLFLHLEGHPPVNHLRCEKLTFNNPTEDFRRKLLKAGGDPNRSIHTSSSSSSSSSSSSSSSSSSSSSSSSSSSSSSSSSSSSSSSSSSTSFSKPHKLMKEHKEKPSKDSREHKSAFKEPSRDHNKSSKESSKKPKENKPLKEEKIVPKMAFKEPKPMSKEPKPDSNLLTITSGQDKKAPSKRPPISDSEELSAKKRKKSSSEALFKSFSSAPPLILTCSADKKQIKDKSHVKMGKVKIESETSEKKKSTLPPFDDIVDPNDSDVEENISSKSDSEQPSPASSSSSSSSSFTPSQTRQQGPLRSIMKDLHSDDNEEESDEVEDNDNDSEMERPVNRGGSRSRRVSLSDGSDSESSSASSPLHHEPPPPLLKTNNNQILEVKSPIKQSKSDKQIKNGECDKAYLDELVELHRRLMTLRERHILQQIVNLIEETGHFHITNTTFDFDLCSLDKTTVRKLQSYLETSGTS
RanGTP-Imp inh = disruptors of Ran-importin-beta complex formation – biochemical, FRET, CFP-Ran, YFP-importin-beta, homogeneous, primary screen | cell-free CFP-Ran/YFP-importin-beta FRET ratio | inhibition, % (test concentration not listed) | 1.1% of 300,000 active | AID 2216;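 active means most replicates above 15%; inconclusive means exactly half above 15%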;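 further: 0% = DMSO wells and 100% = Ran loaded with GDP instead of GTP; wells of about 40 µL received 100 nL stock; the first replicate is given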
rRNA inh HTS = selective bacterial rRNA inhibition in E. coli; E. coli WT GFP vs humanized-ribosome RFP mutants, fluorescence, 24 h; active compounds read low; DMSO median 0, no signal -100; GFP signal change (wild-type ribosome), % (concentration not given with the values); 1.6% of 350,000 active; AID 720706;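 active means significant combined selectivity score with lowered wild-type GFP, culture density cut under 30%, mutant RFP and density less affected; inactive means any of these conditions unmet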; further: one replicate is shown; some compounds called inactive have numbers as strong as hits
Beta cell apopt = beta cell apoptosis inhibition. INS-1E cytokine-induced death, ATP luminescence, 48 h; percent of positive-control rescue, neutral wells zero. 0.8% of 300,000 active. AID 435005. protection from apoptosis, % (no concentration beside the values);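 active means all replicates at 75% or more, or half of them and the mean; inconclusive means half reach 75% but not the mean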;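 further: 0% = cytokine-treated negative control wells and 100% = positive control rescue; higher means more ATP so stronger rescue from cytokine killing; wells of about 40 µL received 100 nL stock; the first replicate is given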
T cruzi repl = T. cruzi replication inhibition; T. cruzi beta-gal in NIH3T3, luminescence, 90 h; inhibition, % (concentration not given with the values); 1.4% of 300,000 active; AID 1885;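 active means mean inhibition across valid replicates above about 55%, limit read from the data; inconclusive means mean below that limit but half or more replicates reach it; inactive means mean below it, under half of replicates reach it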;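 further: signal also drops with host cell toxicity which is not excluded here; 0% = plate median of DMSO wells and 100% = zero luminescence signal; higher percent means less beta-gal luminescence so fewer parasites; stock transfer was 50 nL into about 50 µL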
rRNA inh HTS OD600 = second read-out of rRNA inh HTS, no call of its own (marks repeat the call); OD600 change, %; measured here: OD600 growth;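 optical density of the mix in the first replicate; 0 = DMSO median and -100 = no signal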
rRNA inh HTS RFP = recorded beside rRNA inh HTS, whose call it bears; RFP signal change, %; measured here: RFP humanized mutant strains;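 first replicate; 0 = DMSO median and -100 = no signal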
* = called active by the depositor; ? = inconclusive; nt = not tested or not shown.

Values in the order: A1 inh	Calb FLC	Vif A3G	MLL AF4-AF9 inh	RanGTP-Imp inh	rRNA inh HTS	rRNA inh HTS OD600	rRNA inh HTS RFP	Beta cell apopt	T cruzi repl
(1) COc1ccc(NC(=O)CCNS(=O)(=O)c2ccc(Cl)c([N+](=O)[O-])c2)cc1S(N)(=O)=O
 : 0.9	3	nt	-1.8	-3.5	-12	5	-1.3	-6	-8
(2) CCS(=O)(=O)c1nc2ccccc2n1CC(=O)N1CCCCC1
 : 0.2	-2	14%	nt	-0.5	nt	nt	nt	-4	-8
(3) CCOc1ccc(NC(=S)N2CCC(NC(=O)c3ccccc3)CC2)cc1
 : -0.8	-8	nt	0.9	?	1	-2	-5.2	-1	8
(4) COc1ccc2[nH]cc(C(=O)CN3CCN(C(=O)c4ccco4)CC3)c2c1
 : 0.4	-9	-7%	nt	8.7	nt	nt	nt	3	7
(5) O=C(NCCCN1CCOCC1)c1ccc2c(=O)n(Cc3cccc(Br)c3)c(=S)[nH]c2c1
 : -0.6	3	nt	nt	0.5	nt	nt	nt	1	-15
(6) COc1cc(/C=C/C(=O)OCC(=O)NCCCc2ccccc2)ccc1O
 : -0.8	nt	nt	1.9	nt	-16	-11	7.6	-2	nt
(7) O=C(Nc1ccc(Cl)cc1F)C1CC1c1ccccc1 (stereo not given)
 : -0.3	4	6%	-1.6	4.3	0	-1	-1.2	nt	12
(8) CCCn1c(C)cc(C(=O)CSc2nc3ccccc3c(=O)n2Cc2ccco2)c1C
 : -2.0	3	?	-3.3	4.0	-7	0	4.8	4	30
(9) COc1cccc(-c2nn(-c3ccc(C)cc3)cc2C(=O)NCC(c2cccs2)N2CCOCC2)c1 (stereo not given)
 : 0.1	-3	-3%	4.2	-2.1	-3	5	8.3	nt	34
(10) COc1ccc(C)cc1NC(=O)CCN1CC(C)OC(C)C1 (stereo not given)
 : -0.2	-3	nt	-0.4	1.1	19	6	0.5	nt	-4
(11) CN1CCN(Cc2cccc(Oc3ccccc3)c2)CC1
 : 0.3	-12	9%	-18	6.1	14	-2	-0.4	-4	49
(12) O=C(NCc1ccc2c(c1)OCO2)c1cccnc1Cl
 : -0.5	0	9%	-1.2	-6.1	12	21	0.1	0	-1
(13) O=C(NCc1ccco1)C1c2ccccc2Oc2ccccc21
 : 0.0	24	19%	nt	6.8	nt	nt	nt	-1	-3
(14) O=C(Nc1cccc(-c2cn3cccnc3n2)c1)c1ccc(Br)o1
 : -0.4	9	-20%	nt	4.3	-6	7	0.5	1	71*
(15) Fc1ccccc1-c1nc(NCc2ccco2)c2ccccc2n1
 : -0.7	39	-7%	-3.2	nt	-7	-9	3.2	7	33
(16) COC(=O)C1=C(C(=O)OC)[C@@H]2N(C)c3ccccc3[C@@]23C[C@@H](CO)N=C3N1
 : 1.0	-9	nt	nt	2.2	nt	nt	nt	-4	-2
(17) Cc1ccc(-c2nnc(N3CCCCC3)c3ccccc23)cc1S(=O)(=O)N(C)C
 : -1.0	-7	3%	-30	0.1	1	-1	0.1	-2	32
(18) Cc1c(N/C=C/C(=O)C(F)(F)F)c(=O)n(-c2ccccc2)n1C
 : 0.9	-3	-4%	4.0	-2.5	6	-2	0.8	2	-21
(19) COc1ccc(CNC(=O)c2ccc(CS(=O)(=O)Cc3ccccc3F)o2)cc1
 : 0.3	2	20%	-23	-6.0	3	8	3.3	-7	0
(20) COc1cc(C2C(=O)c3ccccc3C2=O)ccc1O
 : -3.9	-7	nt	0.3	3.6	-7	-3	-2.2	5	-10
(21) Cc1noc(C)c1CCC(=O)NC1CCCN(Cc2ccc(Cl)cc2)C1 (stereo not given)
 : 0.0	6	3%	1.4	1.2	3	2	-0.9	2	36
(22) COc1ccc(S(=O)(=O)N(C)c2ccc(C(=O)NCC3CCCO3)cc2)cc1OC (stereo not given)
 : 1.5	-1	nt	-2.1	-6.1	5	8	1.4	-6	-7
(23) COc1ccc(C(=O)N/N=C\c2coc3ccccc3c2=O)cc1
 : 0.4	7	-7%	-1.4	2.5	10	-1	3.1	-7	-19
(24) S=C(NCc1ccccc1)NCc1ccc2c(c1)OCO2
 : 0.9	-34	19%	nt	3.4	nt	nt	nt	-2	-6
(25) O=c1[nH]c2ccc(S(=O)(=O)N3CCN(C4CCCCC4)CC3)cc2[nH]c1=O
 : 0.3	2	-5%	nt	-1.4	nt	nt	nt	0	-2
(26) CC(C)c1ccc(S(=O)(=O)N(C)C2(C)CCS(=O)(=O)C2)cc1 (stereo not given)
 : -0.1	6	nt	-1.7	-2.4	4	4	2.9	-2	-1
(27) Cc1cccc(N2C(=O)CC(N3CCN(c4cccc(C(F)(F)F)c4)CC3)C2=O)c1 (stereo not given)
 : 1.9	-2	2%	nt	1.8	nt	nt	nt	nt	-2
(28) Cc1cc(NC(=O)CCC(=O)N(CC(=O)NC2CCCC2)c2ccc3c(c2)OCCO3)no1
 : -0.1	0	-2%	nt	0.0	nt	nt	nt	nt	1
(29) CNC(=O)COC(=O)c1ccc(-c2nc3ccccc3s2)s1
 : -9.4	-24	-4%	2.6	?	8	-1	7.0	4	2
(30) Cc1ccc(S(=O)(=O)CCC(=O)Oc2ccc3c(C)cc(=O)oc3c2)cc1
 : 0.0	3	-1%	-13	4.8	6	2	-1.0	-9	-11
(31) CC(=O)N1CCN(c2ccc(NC(=O)c3ccc(Br)o3)cc2Cl)CC1
 : 0.8	-1	?	-7.3	?	-12	-9	0.5	3	18
(32) COc1ccccc1N1C(=O)Cc2ccccc2C1=O
 : 0.8	-2	nt	-7.0	?	1	8	-0.8	-3	-6
(33) CCNC(=O)CC1C(=O)N(c2ccc(F)cc2)C(=O)N1CCc1ccc(OC)cc1 (stereo not given)
 : 1.2	24	-2%	nt	3.8	nt	nt	nt	0	-5
(34) COc1cc(CNc2ncn[nH]2)ccc1OCC(=O)NC(C)(C)C
 : 0.1	-8	nt	-1.2	-2.4	11	5	-0.8	-11	-7
(35) O=C(CSc1nnc(-c2ccccc2)n1-c1ccc(Cl)cc1)N/N=C/c1ccccc1C(=O)O
 : 0.5	11	14%	-11	9.0	5	2	0.6	-3	-5
(36) C/C(=N\NC(N)=S)C1C2C3CC4C5CC(C42)C1C53 (stereo not given)
 : 0.1	22	-4%	1.5	2.4	-17	-24	-3.6	10	77*
(37) CCc1sc(C(=O)Nc2cccc(C(C)=O)c2)cc1C
 : 0.5	1	nt	nt	4.9	nt	nt	nt	8	11
(38) O=C(c1ccccc1NS(=O)(=O)c1ccc(Br)s1)N1CCOCC1
 : -1.0	40	-3%	nt	?	nt	nt	nt	4	-16
(39) Cc1c([N+](=O)[O-])cc(C(=O)Oc2ccc(Br)cc2C(=S)N2CCCCC2)cc1[N+](=O)[O-]
 : 0.0	-9	8%	nt	-2.2	nt	nt	nt	-4	-7
(40) CC(C)[C@H](NC(N)=O)C(=O)Nc1cccc(S(=O)(=O)N2CCOCC2)c1
 : -0.2	6	nt	-3.5	1.3	8	4	-0.7	-6	-9
(41) O=C(CC(=O)N/N=C/c1c(F)cccc1Cl)NCCc1ccccc1
 : -0.4	21	-11%	-0.7	0.5	15	9	1.8	-1	13
(42) Cc1ccc(NC(=O)COC(=O)CN2C(=O)C3CCCCC3C2=O)cc1S(=O)(=O)N1CCOCC1 (stereo not given)
 : -0.4	3	29%	nt	1.0	nt	nt	nt	-6	-3
(43) CCOC(=O)N1CCN(C(=O)c2ccc3nc(-c4ccccc4)c(-c4ccccc4)nc3c2)CC1
 : 0.1	2	-5%	0.3	5.1	-13	-37	-2.7	0	5
(44) Cc1cc(S(=O)(=O)N2CCN=C2c2ccccc2)ccc1F
 : 0.6	8	2%	nt	1.4	nt	nt	nt	-3	-20
(45) COCCNC(=O)[C@@]1(Cc2ccccc2)C=C[C@@H](C)N1C(C)=O
 : 0.1	16	-7%	2.7	-2.8	10	-1	2.2	5	-3
(46) S=C(NCC(c1ccco1)N1CCCC1)Nc1ccccc1 (stereo not given)
 : 0.1	-23	-7%	-0.1	2.3	17	16	-0.5	-11	-3
(47) C/C(CC(=O)Nc1ccc(C)c(Cl)c1)=N\NC(=O)Cc1cnc(N)s1
 : -0.4	-8	?	0.6	0.2	-8	-13	0.9	-6	-11
(48) O=C(Cc1ccc(Cl)cc1)NNC(=O)C1CC=CCC1C(=O)O (stereo not given)
 : 0.8	15	9%	-0.6	1.7	22	24	5.0	nt	-6
(49) C=CCN1C(=O)c2ccccc2Sc2ccc(C(=O)NCC(OC)OC)cc21
 : 0.0	-1	-2%	0.0	4.3	-1	1	3.1	-9	-1
(50) C=CCn1c(SCC(=O)c2cccs2)nc2sc(C)cc2c1=O
 : -0.3	-2	14%	nt	3.7	nt	nt	nt	9	9
(51) Cc1nc2ccccc2nc1Nc1cccc(Cl)c1
 : -1.1	31	-3%	-4.8	0.4	-54	-80	-15	0	2
(52) COc1ccccc1C(=O)OCC(=O)NC(C)CCc1ccccc1 (stereo not given)
 : -0.1	3	-3%	2.6	-0.8	-3	-3	1.9	-2	0
(53) CCC1CCCCN1C(=O)COC(=O)COc1ccc(Br)cc1 (stereo not given)
 : -0.3	nt	nt	-16	nt	-3	0	-2.4	0	nt
(54) Cc1cc(C)c2cc(C(=O)N3CCC(Cc4ccccc4)CC3)[nH]c2c1
 : -0.7	7	-77%	8.5	3.3	6	12	1.4	nt	10
(55) Cc1nn(CC(=O)Nc2ccc(Cl)c(S(=O)(=O)N(C)C)c2)c(C)c1[N+](=O)[O-]
 : -0.3	-6	nt	nt	2.9	nt	nt	nt	1	6
(56) COCCNC(=O)c1cnn2c(C(F)F)cc(-c3ccccc3)nc12
 : 1.1	nt	12%	-2.5	nt	-7	-2	-1.2	-4	12

Only part of the results is shown; rates above refer to the full screens.
